Screening results deposited in PubChem by National Center for Advancing Translational Sciences (NCATS).
TRPML1 ag – qHTS for Agonists of the Human Mucolipin Transient Receptor Potential 1 (TRPML1). Mucolipin-1 (Homo sapiens), Q9GZU1. TRPML1-expressing cells, Ca2+ dye fluorescence, FDSS; host cell line not named in the record; reference of the full effect not given here. activation, % (concentration not given with the values). hit rate 0.12% among 410,000. AID 624414, 2012; in the data active = activation above about 50%; inconclusive = about 30% to 50%; inactive = below about 30%; further: 0% is about no effect; the text of the record puts the active cut at 80%
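Tetracycline-induced TRPML1-DL cells are seeded and incubated overnight before loading with a no-wash Ca2+ dye and quencher. Agonist activity is taken from the 110 s fluorescence read following compound pin-transfer on an FDSS, before EC80 54-4 challenge.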
D2 ag – Beta-Arrestin HTS for Positive Allosteric Modulators of the Human D2 Dopamine Receptor: Agonists; activation, % (no concentration beside the values); D(2) dopamine receptor (Homo sapiens), P14416; hit rate 0.084% among 360,000; DiscoveRx PathHunter D2 beta-arrestin, luminescence, 90 min; 100% = 57 uM dopamine signal; AID 624465, 2012; in the data active = activation above about 40%; inconclusive = about 15% to 40%; inactive = below about 15%; further: compound concentration not given in the record; the text of the record calls up to 30% inactive
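Agonist mode: compounds alone added to overnight-plated D2 PathHunter cells for 90 min at 37 C, with 57 uM final dopamine (EC100) defining full response. Beta-arrestin recruitment detected by chemiluminescent reagent, read after 1 h at ambient temperature.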
PINK1 modulator – A Quantitative High throughput Screen to Identify Chemical Modulators of PINK1 Expression | PINK1 immunofluorescence, high-content cytometry, 24 h | Potency, µM (series often up to 76.6 µM), without a hit: top-dose activation (PINK1 increase), hits mostly activators | hit rate 0.2% among 410,000 | AID 624263, 2012; active = well fitted activation curve with a large enough effect; inconclusive = small, poorly fitted or top-dose-only effect; inactive = flat fitted curve, though single readings scatter; cell line not stated here;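 further: potency means the concentration at half of the fitted maximal effect; % of control where 0% means no effect; nearly all actives have a fitted effect of over 65% in size; a mitochondrial uncoupler was the plate control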
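Measures PINK1 amount and localization on or inside mitochondria by immunofluorescence. Stable cells get compounds at 5 concentrations for 24 hours before fixation and staining; CCCP controls included.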
CtBP-E1A inh – qHTS Assay for Inhibitors of the CtBP/E1A Interaction; activity change, % (test concentration not listed); AID 651724, 2012; CtBP / adenovirus E1A interaction (AlphaScreen); AlphaScreen GST-E1A/His-CtBP binding, 1536-well; stronger effect = lower value; control for the full effect not named in the record; hit rate 0.49% among 340,000; in the data active means activity change below about -65%; inconclusive means about -30% to -65%; inactive means above about -30%; further: on the % scale 0 is the no-effect control and ±100 the full control effect; compound concentration not given in the record
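Homogeneous bead-based format: GST-tagged E1A captured on glutathione donor beads, His-tagged CtBP on nickel acceptor beads; compounds precede bead addition by 2 h at 37 °C.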
TRPML1 inh – qHTS for Inhibitors of the Human Mucolipin Transient Receptor Potential 1 (TRPML1) | Mucolipin-1 (Homo sapiens), Q9GZU1 | TRPML1-inducible cells, Ca2+ dye fluorescence, FDSS; stronger effect = lower value; inhibition of EC80 agonist-evoked calcium signal | activity change, negative = inhibition, % (concentration not given with the values) | hit rate 0.02% among 390,000; in the data active means activity change below about -50%; inconclusive means about -30% to -50%; inactive means above about -30%;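 further: stimulus is agonist 54-4 at its EC80 concentration; on the % scale 0 is the no-effect control and ±100 the full control effect; compound concentration not given in the record; the text of the record puts the active cut at -80%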
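TRPML1-DL cells, Tet-induced overnight (~16 h, 37 °C) at 1,500 cells/well, were loaded with Ca8 no-wash dye plus quencher for 45-90 min at room temperature. Compounds were pinned during FDSS kinetic reading; agonist 54-4 at EC80 (4 uM final) then added.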
Six1-Eya2 blk – qHTS Assay for Inhibitors of the Six1/Eya2 Interaction; activity change, % (concentration not given with the values); Homeobox protein SIX1 (Homo sapiens) + Protein phosphatase EYA2 (Homo sapiens), …; AlphaScreen GST-Six1/His-Eya2 binding, biochemical; stronger effect = lower value; control for the full effect not named in the record; hit rate 0.56% among 360,000; AID 651725, 2012; in the data active = activity change below about -65%; inconclusive = about -30% to -65%; inactive = above about -30%; further: on the % scale 0 is the no-effect control and ±100 the full control effect
Target sequence (O00167 whole entry, looked up): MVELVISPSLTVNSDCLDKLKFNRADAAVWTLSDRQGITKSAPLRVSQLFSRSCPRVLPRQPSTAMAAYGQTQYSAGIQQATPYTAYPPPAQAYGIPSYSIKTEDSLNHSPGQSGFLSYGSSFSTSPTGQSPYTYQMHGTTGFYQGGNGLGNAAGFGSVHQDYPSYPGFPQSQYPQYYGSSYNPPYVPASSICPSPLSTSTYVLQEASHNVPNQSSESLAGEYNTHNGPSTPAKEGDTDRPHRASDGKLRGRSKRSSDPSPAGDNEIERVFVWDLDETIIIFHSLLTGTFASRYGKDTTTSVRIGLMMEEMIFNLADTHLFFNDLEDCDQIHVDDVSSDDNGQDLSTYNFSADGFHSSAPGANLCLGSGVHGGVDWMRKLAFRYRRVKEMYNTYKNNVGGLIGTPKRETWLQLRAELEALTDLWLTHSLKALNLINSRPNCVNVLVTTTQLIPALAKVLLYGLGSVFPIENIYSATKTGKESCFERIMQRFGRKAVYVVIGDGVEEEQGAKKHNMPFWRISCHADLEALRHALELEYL
Target sequence (Q15475 whole entry, looked up): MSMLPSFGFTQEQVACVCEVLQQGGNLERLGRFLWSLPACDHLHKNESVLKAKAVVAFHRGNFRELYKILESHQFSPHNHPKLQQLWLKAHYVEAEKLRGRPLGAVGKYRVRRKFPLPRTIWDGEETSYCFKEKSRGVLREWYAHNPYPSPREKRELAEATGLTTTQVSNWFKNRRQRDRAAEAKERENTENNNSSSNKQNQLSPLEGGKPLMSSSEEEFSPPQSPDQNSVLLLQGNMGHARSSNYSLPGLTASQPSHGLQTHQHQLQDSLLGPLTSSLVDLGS
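AlphaScreen with GST-Six1 and His-Eya2 (5X mix: 250 nM and 500 nM), glutathione donor and nickel acceptor beads; buffer 50 mM Tris pH 8.0, 300 mM NaCl, 1 mM TCEP; 1 h at 37 C in the dark.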
* hit, by the source's call; ? = inconclusive; nt = not tested or not shown; & = joins results of further samples; [ ] = dose if it differs, or a comment.

SMILES	TRPML1 ag	D2 ag	PINK1 modulator	CtBP-E1A inh	TRPML1 inh	Six1-Eya2 blk
Cc1ccc(OCc2nnc(SCC(=O)N3CCOCC3)n2C)cc1	0.2	-2.5	2.0%[38.3 µM]	2	8	4
CCCCOc1ccccc1C(=O)NCCCCCC(=O)O	-0.3	-4.3	-0.4%	5	8	1
Cc1cccc(OCC(=O)N2CCN(C(=O)COc3ccc(Cl)cc3)CC2)c1	0.5	0.2	-0.5%	0	7	20
O=C(Nc1ccc(CN2CCCCC2)cc1)Nc1ccc(Br)cc1Cl	0.5	-1.5	-1.7%	0	7	3
CCn1cc(C(=O)O)c(=O)c2cnc(N3CCN(C(=S)NC(=O)c4ccc(F)c(F)c4)CC3)nc21	0.3	5.1	3.4%	3	11	-7
Cn1cc(CCC(=O)NC2CC2)c2ccccc21	-0.3	-2.1	0.5%	1	-14	2
COc1ccc(S(=O)(=O)N2CCCC(C(=O)N3CCOCC3)C2)cc1OC (stereo not drawn)	-0.3	1.4	-2.1%	7	4	4
O=c1[nH]c2cc3c(cc2cc1CN(Cc1nnnn1CC1CCCO1)C1CCCCC1)OCO3 (stereo not drawn)	-0.8	-1.0	-1.2%	5	3	1
COCC(C)n1c(C)cc(C(=O)COC(=O)c2ccc3c(c2)NC(=O)CS3)c1C (stereo not drawn)	1.0	0.0	0.6%	nt	0	7
O=c1ccn([C@@H]2O[C@H](CNS(=O)(=O)c3csc(-c4ccno4)c3)[C@@H](O)[C@H]2O)c(=O)[nH]1	-0.4	1.6	-0.6%	2	-7	8
O=C1CC(c2cccc(Oc3ccccc3)c2)NC(=O)N1 (stereo not drawn)	-0.2	-4.6	1.7%	5	3	-1
COc1ccc(Cl)cc1NC(=O)C1CCCN(c2cc(C)nc3ncnn23)C1 (stereo not drawn)	-0.2	0.0	-7.0%[38.3 µM]	5	-21	-9
CCc1nc(N[C@@H](Cc2c[nH]c3ccccc23)C(=O)O)c2oc3ccccc3c2n1	-0.6	-2.2	-1.0%	-4	11	0
O=C(CNC(=O)c1[nH]cnc1C(=O)NC(c1ccccc1)c1ccccc1)OCc1ccccc1	0.4	-4.0	1.3%	-3	6	-6
CCc1ccc(S(=O)(=O)c2cn(Cc3ccccc3)c3cc(N4CCCC4)c(F)cc3c2=O)cc1	-0.6	nt	0.2%	nt	13	nt
CN1CCC(=O)N([C@H](CN=[N+]=[N-])Cc2ccccc2)CC1	-0.4&-0.5	-2.8	3.4%	-10	-6	-19
O=C(Nc1ccc2c(c1)CCO2)Nc1nnc([C@H]2C[C@H](O)[C@@H](CO)O2)s1	-0.8	-2.9	0.6%	24	nt	23
COc1ccc(/C=N/Nc2ccc([N+](=O)[O-])cc2S(=O)(=O)N2CCN(C)CC2)cc1	1.0	-0.9	?	0	13	11
COc1ccc(CNC(=O)C2=CC(c3ccc(C)cc3)=NS(=O)(=O)N2C)cc1	-0.2	-5.3	0.2%	-10	0	-10
CCC(C)C(=O)Nc1nc(C)c(-c2csc(Nc3cc(Cl)ccc3OC)n2)s1 (stereo not drawn)	-0.5	-2.7	4.0%	-1	-2	-2
Cn1c(SCC(=O)NCc2ccc(F)cc2)ncc(C(=O)Nc2ccccc2)c1=O	0.4	-4.5	2.5%	3	2	24
CCOc1ccccc1Nc1nc2c(S(=O)(=O)c3ccc(C)cc3)nnn2c2ccsc12	1.2	nt	0.1%	nt	-6	nt
COc1ccc(CCC2(C)OCC(CCCCO)O2)cc1 (stereo not drawn)	0.9	-2.5	-0.2%	-1	-2	-3
Cc1oc(-c2ccccc2)cc1C(=O)Nc1cccc(C(=O)O)c1	0.2	-1.6	-3.6%[38.3 µM]	-11	5	-6
COc1ccc(/C=C(/NC(=O)c2ccccc2)C(=O)NCCN2CCOCC2)cc1OC	-0.2	-4.6	1.1%	5	-15	-1

Part of the list above, field by field:
> O=c1[nH]c2cc3c(cc2cc1CN(Cc1nnnn1CC1CCCO1)C1CCCCC1)OCO3 (stereo not drawn)
  TRPML1 ag = -0.8
  D2 ag = -1.0
  PINK1 modulator = -1.2%
  CtBP-E1A inh = 5
  TRPML1 inh = 3
  Six1-Eya2 blk = 1
> COCC(C)n1c(C)cc(C(=O)COC(=O)c2ccc3c(c2)NC(=O)CS3)c1C (stereo not drawn)
  TRPML1 ag = 1.0
  D2 ag = 0.0
  PINK1 modulator = 0.6%
  CtBP-E1A inh = nt
  TRPML1 inh = 0
  Six1-Eya2 blk = 7
> O=c1ccn([C@@H]2O[C@H](CNS(=O)(=O)c3csc(-c4ccno4)c3)[C@@H](O)[C@H]2O)c(=O)[nH]1
  TRPML1 ag = -0.4
  D2 ag = 1.6
  PINK1 modulator = -0.6%
  CtBP-E1A inh = 2
  TRPML1 inh = -7
  Six1-Eya2 blk = 8
> O=C1CC(c2cccc(Oc3ccccc3)c2)NC(=O)N1 (stereo not drawn)
  TRPML1 ag = -0.2
  D2 ag = -4.6
  PINK1 modulator = 1.7%
  CtBP-E1A inh = 5
  TRPML1 inh = 3
  Six1-Eya2 blk = -1

The results go on.
SMILES	TRPML1 ag	D2 ag	PINK1 modulator	CtBP-E1A inh	TRPML1 inh	Six1-Eya2 blk
C=CCn1c(COc2ccc(Cl)cc2)nnc1SCC(=O)NCC(=O)OCC	-0.5	-1.5	-1.0%	-2	8	0
N#Cc1cccc(NC(=O)COC(=O)CCc2ccc(S(=O)(=O)N3CCOCC3)cc2)c1	0.2	-2.8	2.2%	8	31	-3
CCCOC(=O)C(C)n1c(-c2ccccc2)nc2ccccc2c1=O (stereo not drawn)	0.0	0.7	8.9µM*	0	-8	3
COC(=O)C(NC(=O)c1ccc(OC)cc1)(Nc1ncc(S(=O)(=O)c2ccc([N+](=O)[O-])cc2)s1)C(F)(F)F (stereo not drawn)	4.1	10	-1.4%	-5	2	-21
CCOC(=O)c1sc(NC(=O)Nc2ccc(Cl)cc2)cc1C	2.2	4.3	?	1	1	3
O=c1c2ccccc2c(=O)n2n1Cc1ccccc1C2	-0.5	-0.8	0.1%	5	1	2
Cc1[nH]c(=S)n(CC2CCCO2)c1C (stereo not drawn)	0.3	-0.1	-1.7%	-7	-4	4
O=C1CCCc2c1nc(-c1ccco1)n2O	0.0	-1.2	1.1%	6	-4	10
CCc1cc2c(=O)c(-c3ccc4c(c3)OCO4)coc2c(CN(C)C)c1O	1.3	2.8	2.2%	nt	22	0
COc1ccc(C(=O)OCC2CC(c3ccccc3)=NO2)cc1OC (stereo not drawn)	2.6	-3.4	-0.7%	-5	-5	5
Cn1c(CNC(=O)CNS(=O)(=O)c2ccc(F)cc2F)cc(=O)n(C)c1=O	0.2	1.1	0.4%	-1	14	2
O=c1/c(=C\c2ccc(O)cc2)sc2nc(-c3ccccc3)c(-c3ccccc3)n12	nt	0.3	11%	-15	nt	2
Cc1[nH]c2ccccc2c1/C=N/Nc1ccccc1[N+](=O)[O-]	1.2	-3.4	-1.2%	?	8	-69*
O=C(Cc1ccc(NC2=NC3CS(=O)(=O)CC3S2)cc1)NCc1ccccc1Cl (stereo not drawn)	0.2	1.3	0.7%	-10	2	4
COc1ccc(C(=O)CC(=O)C(=O)Nc2cc(OC)ccc2OC)cc1	0.2	7.0	14%	0	2	1
CCOC(=O)N1CCc2c(sc3ncn(Cc4ccc(F)cc4)c(=O)c23)C1	0.1	6.7	-1.0%	-1	-15	0
CN(NC(=O)c1ccccc1F)c1ncccc1[N+](=O)[O-]	0.8	-5.8	-0.1%	-12	-1	1
CC(C)C(NC(=O)c1ccc(C(C)(C)C)cc1)C(=O)NC1=NCCS1 (stereo not drawn)	1.3	-1.3	-5.3%	7	0	6
COCCNC(=O)c1ccccc1NC(=O)c1ccccc1N(C)S(C)(=O)=O	-1.0	5.0	0.3%	-24	-13	7
O=C(Cc1ccc(NC2=NC3CS(=O)(=O)CC3S2)cc1)NCc1ccccc1 (stereo not drawn)	0.0	-3.3	1.9%	6	-14	-1
c1ccc(-c2cc3nc(NCc4cccs4)ccn3n2)cc1	1.2	5.3	3.5%	4	28	6
COc1ccc(C(CC(=O)N2CCCCC2)C(C)C)cc1 (stereo not drawn)	0.7	-2.2	-1.6%	6	34	9
Cc1ccc(S(=O)(=O)NC(=O)Nc2ccc(F)cc2)cc1	0.6	1.9	-1.0%	-1	6	7
COc1cccc(OCC(O)CN2CCc3ccccc3C2)c1 (stereo not drawn)	0.4	-3.4	0.7%	0	4	3
CN1CCN(CC#CC(C)(O)C2CC3C=CC2C3)CC1 (stereo not drawn)	0.4	-4.3	-0.8%	1	16	2

(more compounds)
SMILES	TRPML1 ag	D2 ag	PINK1 modulator	CtBP-E1A inh	TRPML1 inh	Six1-Eya2 blk
CC(=O)Nc1ccc(NC(=O)Cn2ccc([N+](=O)[O-])n2)cc1	-0.8	-5.8	-1.3%	5	-10	10
O=C(OCC(=O)N1CCCC1=O)c1ccc(Cl)cc1[N+](=O)[O-]	-0.6	4.6	2.8%	6	16	3
OCCCNC(c1ccccc1)c1ccc(O)cc1 (stereo not drawn)	-0.5	-1.3	2.8%	-3	-1	-2
CCCC(c1nnnn1Cc1ccc(OC)cc1)N1CCC(C(N)=O)CC1 (stereo not drawn)	1.5	0.2	2.0%	0	-23	6
Cc1ccc(CNc2ccc(N3CCOCC3)c(Cl)c2)cc1	0.1	0.8	0.9%	-14	14	-29
O=C(Nc1cccc(Oc2ccc3c(c2)C(=O)NC3=O)c1)c1ccco1	0.0	-1.0	3.5%[38.3 µM]	-2	6	-2
CC(=O)c1ccc(NC(=O)COC(=O)C2C3CC4OC(=O)C2C4C3)cc1 (stereo not drawn)	0.9	-2.5	1.8%	-2	12	0
CCCCCCCC1c2c(c(C)c(C)oc2=O)Oc2c(C)c(C)oc(=O)c21	-0.7	-2.0	1.0%	6	4	-3
O=C(COc1ccc(Cl)cc1)Nc1sc2c(c1C(=O)Nc1cccc(Cl)c1)CCCC2	-0.5	nt	1.0%	nt	11	nt
O=C(CCCOc1ccccc1)NCCc1ccccc1	-0.3	4.2	1.2%	0	1	12
Cc1ccc([N+](=O)[O-])cc1N1C(=O)CS/C1=N\NC(=O)c1cccnc1	0.9	4.0	0.9%	-4	-20	6
COc1ccc(N2C(=O)/C(=C/c3cccnc3)NC2=S)cc1	-0.9	1.5	16%	5	0	7
CCN1CCN(C(c2cccs2)C(C)NC(=O)c2ccccc2F)CC1 (stereo not drawn)	0.4	-1.6	4.7%[38.3 µM]	0	-14	2
COc1ccc(C(=O)OCC(=O)c2ccccc2)cc1S(=O)(=O)N1CCOCC1	-1.0	-1.3	-2.1%	-9	-4	-3
